# Screening results as filed in PubChem BioAssay.
# rRNA inh HTS: selective bacterial rRNA inhibition in E. coli; E. coli WT GFP vs humanized-ribosome RFP mutants, fluorescence, 24 h; hits give low values; DMSO median 0, no signal -100; GFP signal change (wild-type ribosome), % (no concentration beside the values); 1.6% of 350,000 active; AID 720706;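 active = significant combined selectivity score with lowered wild-type GFP, culture density cut under 30%, mutant RFP and density less affected; inactive = any of these conditions unmet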; note: one replicate is shown; some compounds called inactive have numbers as strong as hits
# RanGTP-Imp inh: inhibitors of RanGTP-importin-beta interaction, primary screen, biochemical, FRET, CFP-Ran, YFP-importin-beta, homogeneous; cell-free CFP-Ran/YFP-importin-beta FRET ratio; inhibition, % (test concentration not listed); 1.1% of 300,000 active; AID 2216;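 active = most replicates above 15%; inconclusive = exactly half above 15%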;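 note: 0% = DMSO wells and 100% = Ran loaded with GDP instead of GTP; wells of about 40 µL received 100 nL stock; the first replicate is given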
# T cruzi inh: T. cruzi replication inhibition | inhibition, % (test concentration not listed) | AID 1885 | 1.4% of 300,000 active | T. cruzi beta-gal in NIH3T3, luminescence, 90 h;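 active = mean inhibition across valid replicates above about 55%, limit read from the data; inconclusive = mean below that limit but half or more replicates reach it; inactive = mean below it, under half of replicates reach it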;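 note: signal also drops with host cell toxicity which is not excluded here; 0% = plate median of DMSO wells and 100% = zero luminescence signal; higher percent means less beta-gal luminescence so fewer parasites; stock transfer was 50 nL into about 50 µL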
# Beta cell apopt: blocks beta cell apoptosis; protection from apoptosis, % (test concentration not listed); INS-1E cytokine-induced death, ATP luminescence, 48 h; percent of positive-control rescue, neutral wells zero; 0.8% of 300,000 active;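 active = all replicates at 75% or more, or half of them and the mean; inconclusive = half reach 75% but not the mean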;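 note: 0% = cytokine-treated negative control wells and 100% = positive control rescue; higher means more ATP so stronger rescue from cytokine killing; wells of about 40 µL received 100 nL stock; the first replicate is given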
# ALR H2O2 inh: inhibitors of human sulfhydryl oxidase ALR; P55789; AID 485317; inhibition, % (test concentration not listed); 3.8% of 290,000 active; purified ALR, DTT oxidation, H2O2 HRP-luminol luminescence;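 active = mean and each replicate at 75% or more; inconclusive = only one of the two met; inactive = neither met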;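 note: stock transfer was 7.5 nL into about 7.5 µL; 0% = neutral wells and 100% = wells with inactivated enzyme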
# Target sequence (P55789 whole entry, looked up): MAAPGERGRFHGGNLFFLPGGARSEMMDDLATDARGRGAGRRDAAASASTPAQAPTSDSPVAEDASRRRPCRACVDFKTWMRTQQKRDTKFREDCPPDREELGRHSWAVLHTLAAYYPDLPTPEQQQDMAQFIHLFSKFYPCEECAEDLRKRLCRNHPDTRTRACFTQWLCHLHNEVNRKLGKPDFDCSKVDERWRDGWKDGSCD
# FGF22 binding: shifts melting point of recombinant human FGF22. Q9HCT0. recombinant FGF22 thermal shift, SYPRO orange fluorescence; percent of sucrose octasulfate shift, DMSO zero. calls only at 9.99 µM. 1.5% of 340,000 active. AID 651658;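 active = melting point raised past a set limit in the mean and every replicate; inconclusive = no clear call; three in four hits are not shown here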
# Target sequence (Q9HCT0 whole entry, looked up): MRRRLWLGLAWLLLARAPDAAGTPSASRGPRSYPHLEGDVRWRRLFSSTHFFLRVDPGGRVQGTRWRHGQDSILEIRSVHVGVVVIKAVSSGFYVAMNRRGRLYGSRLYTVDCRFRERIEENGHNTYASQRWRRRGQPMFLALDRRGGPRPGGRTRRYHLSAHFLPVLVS
# Calb FLC: affects C. albicans growth with fluconazole | C. albicans CaCi-2 (fluconazole-resistant clinical isolate) + fluconazole, Alamar Blue growth, 48 h | growth inhibition, % (concentration not given with the values) | 0.57% of 300,000 active;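 active = most replicates above 75%; inconclusive = exactly half above 75%; inactive = most below 75%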;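 note: all wells also contain fluconazole at 8 µg/ml as a sub-toxic cotreatment; 0% = median of DMSO wells and 100% = median of geldanamycin control wells; wells of about 8 µL received 7.5 nL stock; the first replicate is given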
# AF4-AF9 inh: MLL-AF4/AF9 protein interaction inhibition. inhibition, % at 10 µM. P42568. AlphaScreen, biotin-AF4 peptide binding to FLAG-AF9. AID 651704. 0.47% of 350,000 active;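 active = every replicate reaching a set inhibition limit, whatever the replicate mean, cut at about 25% in these data; inconclusive = mean inhibition reaches that limit but some replicates miss it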;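 note: 0% = plate neutral control median and 100% = total signal loss; the record names both 10 and 1 µM as test concentration; the first replicate is given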
# Target sequence (P42568 whole entry, looked up): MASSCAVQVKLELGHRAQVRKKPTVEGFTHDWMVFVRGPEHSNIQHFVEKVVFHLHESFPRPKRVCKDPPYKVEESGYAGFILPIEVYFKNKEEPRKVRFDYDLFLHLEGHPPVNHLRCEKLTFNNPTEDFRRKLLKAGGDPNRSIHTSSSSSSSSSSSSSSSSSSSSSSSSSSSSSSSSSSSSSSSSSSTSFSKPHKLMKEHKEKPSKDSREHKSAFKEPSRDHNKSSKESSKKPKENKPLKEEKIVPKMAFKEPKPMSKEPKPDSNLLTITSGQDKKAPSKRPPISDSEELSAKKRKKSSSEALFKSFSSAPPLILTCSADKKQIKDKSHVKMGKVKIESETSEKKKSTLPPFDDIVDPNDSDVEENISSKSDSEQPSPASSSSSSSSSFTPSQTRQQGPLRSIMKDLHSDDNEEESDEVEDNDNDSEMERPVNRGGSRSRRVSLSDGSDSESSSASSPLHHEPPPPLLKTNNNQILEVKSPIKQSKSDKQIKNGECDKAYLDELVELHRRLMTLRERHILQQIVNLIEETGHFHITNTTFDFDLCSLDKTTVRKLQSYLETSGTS
# rRNA inh HTS OD600: second read-out of rRNA inh HTS, no call of its own (marks repeat the call); OD600 change, %; measured here: OD600 growth;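 optical density of the mix in the first replicate; 0 = DMSO median and -100 = no signal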
# rRNA inh HTS RFP: further read-out of rRNA inh HTS, marked with its call; RFP signal change, %; measured here: RFP humanized mutant strains;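 first replicate; 0 = DMSO median and -100 = no signal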
# * marks the source's active call; other numbers are inactive results; i = inactive; ? = inconclusive; / = no result given. Only part of the results is shown; the hit share may differ from the screen's.
SMILES,rRNA inh HTS,rRNA inh HTS OD600,rRNA inh HTS RFP,RanGTP-Imp inh,T cruzi inh,Beta cell apopt,ALR H2O2 inh,FGF22 binding,Calb FLC,AF4-AF9 inh
COc1ccc(CCN(Cc2ccc(C(C)C)cc2)S(=O)(=O)c2ccc(S(=O)(=O)N(C)C)cc2)cc1OC,/,/,/,0.3,3,2,-15,/,30,/
O=C(CN(C(=O)CNS(=O)(=O)c1ccccc1)c1ccc2c(c1)OCCO2)NC1CCCCC1,/,/,/,3.5,4,-6,64,/,-25,/
CN1CCC(NC(=O)c2ccncc2)CC1,23,14,1.5,-0.9,25,0,-33,i,5,-0.7
O=C(O)CC12CSc3[nH]c(=O)sc3C1c1ccccc1OC2=O (stereo not given),/,/,/,-0.2,-11,-9,-8,/,1,/
O=C(Nc1ccccc1)C(=O)Nc1cccnc1,2,4,-0.6,-3.4,2,5,2,i,-5,-0.9
C(=C\c1ccccc1)/CN1CCN(Cc2nc(Cc3ccccc3)no2)CC1,5,5,-0.3,-0.5,51,0,-4,i,-1,2.7
Cc1nn(-c2ccccc2)c(Oc2ccccc2)c1C=O,-19,-15,1.2,4.1,-14,1,9,i,10,-3.7
COC(=O)Nc1ccc(S(=O)(=O)N2CCCc3cccc(O)c32)cc1,-32,-60,-7.4,4.4,1,10,-4,i,22,-0.7
COC(=O)c1c(C)cc(C)c2c1CC(C)(C)C2=O,8,10,0.4,-0.2,-11,/,/,i,-6,/
Cn1c(CSCc2ccc(Cl)c(Cl)c2)n[nH]c1=S,/,/,/,-0.2,4,-10,90*,/,-14,/
CCOC(=O)Cn1c(=NC(=O)CSC(C)=O)sc2ccccc21,4,2,2.0,0.5,-1,-5,/,i,-18,5.4
COc1nc(C)nc(C)c1Oc1ccc(Cl)cc1Cl,-8,-15,-2.0,-0.3,-11,/,/,i,-4,-0.9
Cc1csc(NC(=O)CSc2ccc3nnc(-c4ccncc4)n3n2)n1,-7,-5,-1.6,1.8,-11,-8,-21,i,-14,-1.5
CCOC(=O)CC(NS(=O)(=O)Cc1ccccc1)c1ccc(C)cc1 (stereo not given),-3,-4,0.3,-1.4,-1,2,-13,i,-5,-4.3
COc1ccc(NC(=O)CC2C(=O)NCCN2C(=O)Nc2ccc(C(F)(F)F)cc2)cc1 (stereo not given),-2,-13,1.4,-0.1,-4,-6,-3,i,2,0.8
NC(=O)C1CCN(S(=O)(=O)Cc2ccccc2Cl)CC1,9,3,-6.2,1.9,-12,-6,-1,i,-1,-2.2
Cc1ccc2c(c1)-n1c(nc3ccccc3c1=O)C(CC(C)C)NC2=O (stereo not given),10,5,-2.6,/,/,-7,6,i,/,3.0
O=C(Nc1cc(C(F)(F)F)ccc1N1CCOCC1)c1ccc2ccccc2n1,/,/,/,3.0,50,13,6,/,1,/
CCOc1cccc(/C=N/N2C(=O)CSC2=S)c1O,-7,-26,-3.4,-3.6,-16,5,93*,i,35,-0.9
CN(C)CCCn1c(SCc2c(Cl)cccc2Cl)nnc1-c1ccncc1,4,10,0.5,-1.0,2,-4,/,i,5,4.7
Cc1nn(C)cc1/C=N/NC(=O)Cn1cncn1,15,3,-0.5,3.3,1,/,1,i,-3,0.1
Cc1cc(C)cc(NC(=O)C[n+]2ccccc2)c1,12,13,2.9,-1.5,-6,-6,-10,i,-4,-0.4
Cc1ccc(N(C(=O)Cn2nnc(-c3cccs3)n2)C(C(=O)NC2CCCC2)c2ccncc2)cc1 (stereo not given),/,/,/,1.5,1,2,0,/,3,/
Cc1ccccc1CN(c1ccc(C(=O)NCc2ccccn2)cc1)S(C)(=O)=O,-1,5,2.4,2.7,1,-1,4,i,-2,0.1
CCn1c(SCC(=O)c2ccc(Cl)cc2)nnc1C(C)C,/,/,/,0.8,-10,-3,37,/,2,/
COc1ccccc1NCC(=O)N/N=C(\C)c1ccc(Br)s1,-1,-6,-0.1,6.0,9,-5,-29,i,-13,-0.8
COC(=O)CN1C(=O)N/C(=C/c2ccc(C)o2)C1=O,23,13,9.3,-3.0,-1,-4,2,i,-7,-5.1
COc1ccccc1OCC(=O)Nc1ccncc1,3,7,0.0,-0.7,-1,-1,-12,i,-8,-0.1
COc1ccc(NC2CCCN(C(=O)c3csc(C(C)C)n3)C2)cc1 (stereo not given),-2,-1,1.5,?,-5,-1,99*,i,-4,5.8
Cc1cnc(NC(=O)CCCNC(=O)c2ccc(Cl)cc2)s1,3,10,-1.9,/,/,0,-1,i,/,6.7
COc1cccc(C(=O)c2sc(NC(C)C)nc2N)c1,/,/,/,-0.9,/,-30,39,/,47,/
Cc1ccc(N(CC(=O)NC(C)C)C(=O)CCC(=O)Nc2nccs2)cc1C,9,9,-1.4,-1.8,-4,-5,-20,i,-4,0.2
O=C(Nc1ccc(F)cc1)c1nn(-c2ccccc2)c(=O)cc1Cl,-36,-44,8.7,1.2,17,/,/,i,78,-0.8
O=C(OCCN=C1NS(=O)(=O)c2ccccc21)c1cccs1,1,1,1.9,4.5,-13,/,-2,i,-5,-1.6
CCn1c(=O)c2c(n3cnnc13)-c1ccccc1CC21CCCCC1,/,/,/,-4.5,11,-2,-14,/,-3,/
Cc1nc2c(ccc3c2ccc2nc(C)sc23)s1,/,/,/,?,-3,0,-9,/,15,/
Cc1ccc(C(=O)OCCOc2cccc(Cl)c2)cc1S(=O)(=O)N1CCOCC1,-11,-17,-3.6,4.8,12,2,-30,i,0,-1.6
O=C(NCCCN1CCOCC1)c1cc2c(s1)CCC2,/,/,/,1.0,-3,-3,-9,/,2,/
N#Cc1c(Cl)nc(-c2cccnc2)nc1-c1ccccc1,/,/,/,-2.5,-13,-3,/,/,22,/
CCCNC(=S)N1CCC(C(=O)c2ccc(Cl)cc2)CC1,2,7,-2.4,1.1,9,3,-3,i,-10,0.8
S=C(NCc1ccco1)Nc1ccc(Br)cn1,-1,-3,10.0,-2.1,-40,-5,-28,i,0,-1.0
Cc1nc2ccc3nc(NC(=O)C4COc5ccccc5O4)sc3c2s1 (stereo not given),1,0,4.6,-2.4,1,-1,/,i,6,48*
CCOc1ccccc1NC(=O)c1nnn(CC(=O)Nc2cc(C)cc(C)c2)c1N,10,4,5.4,-1.3,0,0,-1,i,2,-1.3
O=C(CSCc1ccc(Br)cc1)Nc1ccc(S(=O)(=O)N2CCOCC2)cc1,/,/,/,?,10,-3,-8,/,-9,/
Cc1ccc(/C=C/C(=O)Nc2ccc([N+](=O)[O-])cc2)o1,6,13,8.6,?,30,-13,8,i,-3,-39
Cc1cc(C)cc(-n2c(C)cc(/C=N/NC(=O)c3cccc([N+](=O)[O-])c3C)c2C)c1,5,2,1.8,2.1,20,-6,0,/,8,/
CCOCCCNCC(=O)NC1(C)C2CCC(C2)C1(C)C (stereo not given),/,/,/,0.8,17,-10,2,/,-14,/
CC(C)CCn1c(SCC(=O)NC2CC2)nc2cc(Cl)ccc2c1=O,10,16,-0.5,-1.0,-11,0,-11,i,5,2.4
COc1cccc(/C=N/NC(=O)C(C)n2nc(C)c([N+](=O)[O-])c2C)c1O (stereo not given),-22*,13*,1.0*,1.1,-15,48,41,i,-10,5.5
Cn1c(NC(=O)Cc2ccc(F)cc2)cc(=O)n(C)c1=O,10,9,0.0,-1.3,-3,-8,-2,i,-1,5.1
# Further compounds follow.
SMILES,rRNA inh HTS,rRNA inh HTS OD600,rRNA inh HTS RFP,RanGTP-Imp inh,T cruzi inh,Beta cell apopt,ALR H2O2 inh,FGF22 binding,Calb FLC,AF4-AF9 inh
COc1ccc(-c2cc(C(=O)NCCCn3ccnc3)no2)cc1,-1,5,-6.1,-1.5,-2,23,-4,i,6,8.3
CC(=O)NC(CC(=O)OCC(=O)c1ccc(NC(=O)CC(C)C)cc1)c1ccccc1 (stereo not given),11,12,0.4,/,/,-6,-2,i,/,-7.3
CCS(=O)(=O)Nc1cc(C(=O)O)ccc1C,17,18,1.6,1.1,-1,-9,-4,i,-4,-0.9
O=C(O)CC1NCCc2ccccc21 (stereo not given),8,1,-4.3,0.0,-4,-3,3,i,2,-4.3
COCCn1c(SCC(=O)N2CCCc3ccccc32)nnc1-c1ccco1,/,/,/,6.1,3,3,2,/,30,/
Cc1nc(N2CCC(C)CC2)c2c(C)c(C(=O)Nc3ccc(C)c(F)c3)sc2n1,2,8,-1.5,-4.3,38,10,0,i,2,-5.0
CCCc1ccc(S(=O)(=O)N/N=C\c2ccc3c(c2)OCO3)cc1,-2,-38,3.6,-0.1,-18,-4,1,i,-10,-0.9
CCOc1ccc(Cc2onc3c2C(=O)CC(C)(C)C3)cc1OCC,-10,-13,-4.5,4.5,10,1,-3,i,4,0.4
COc1ccc(NC(=O)NCc2ccc3c(c2)OCO3)cc1OC,7,7,2.1,1.4,-3,-8,-7,i,-1,-2.2
CCOC(=O)c1c(C)[nH]c(C2=NNC(=Nc3ccccc3OC)SC2)c1C,-2,1,-2.1,1.0,10,10,1,i,-8,-1.1
CCCc1cc(=O)[nH]c(SCc2ccc(C#N)cc2)n1,/,/,/,0.8,7,-3,/,/,2,/
O=C(C1CCN(S(=O)(=O)c2ccccc2)CC1)N1CCCCC1,2,2,1.5,4.9,7,/,2,i,5,-5.1
COC(=O)C1=C(Nc2ccccc2NC(=O)CCCC(=O)O)CSC1,-3,3,-5.0,-2.3,6,/,18,i,-1,-2.7
CCOC(=O)c1c(C)nc2sc3c(=O)[nH]cnc3c2c1-c1ccc(OC)cc1,/,/,/,-1.3,10,8,-5,/,-14,/
CC(C)(C)NC(=O)C(c1ccc(O)cc1)N(C(=O)CCC(=O)Nc1nccs1)c1ccccc1F (stereo not given),-6,-10,-4.0,-3.2,-1,-6,-6,i,3,2.0
CCc1c(C)nc(SC)n(CC#N)c1=O,/,/,/,-1.8,-1,2,-3,/,6,/
O=C(Cc1coc2cc3c(cc12)CCC3)OCc1cc(=O)n2c(n1)sc1ccccc12,/,/,/,1.3,-8,-2,2,/,4,/
CC(C)CCN1CC(=O)N2[C@@H](Cc3c([nH]c4ccccc34)C2(C)C)C1=O,8,6,3.2,0.3,5,-9,-34,i,9,-2.0
COc1ccc(-c2cc(-n3c(C(F)(F)F)nc4ccccc43)n(CCC#N)n2)cc1,/,/,/,5.0,19,5,-11,/,-1,/
O=S(=O)(c1ccccc1)c1cnc(-c2cccnc2)nc1-c1ccc(Cl)cc1Cl,-2,10,9.8,10,48,0,0,/,-13,/
CCN(CC(=O)NCc1ccc(Cl)cc1)C(=O)c1cc(S(=O)(=O)NCc2ccccc2)ccc1C,3,0,1.0,2.9,22,1,-14,i,7,-1.9
O=C(Nc1ccc(F)cc1F)c1ccccc1-c1ccccc1,/,/,/,1.2,-25,1,2,/,-47,/
O=C(Nc1ccccc1)Nc1cccc(NC(=O)Nc2ccccc2)c1F,8,19,1.0,0.5,-5,7,-3,i,-8,2.5

# Looked up by structure from above:
SMILES,rRNA inh HTS,rRNA inh HTS OD600,rRNA inh HTS RFP,RanGTP-Imp inh,T cruzi inh,Beta cell apopt,ALR H2O2 inh,FGF22 binding,Calb FLC,AF4-AF9 inh
CC(C)CCN1CC(=O)N2[C@@H](Cc3c([nH]c4ccccc34)C2(C)C)C1=O,8,6,3.2,0.3,5,-9,-34,i,9,-2.0
O=C(Nc1ccc(F)cc1F)c1ccccc1-c1ccccc1,/,/,/,1.2,-25,1,2,/,-47,/
